# Source: PubChem BioAssay
# ALR H2O2 inh: blocks human ALR sulfhydryl oxidase activity. P55789. purified ALR, DTT oxidation, H2O2 HRP-luminol luminescence. inhibition, % (test concentration not listed). 3.8% of 290,000 active. AID 485317;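 active = mean and each replicate at 75% or more; inconclusive = only one of the two met; inactive = neither met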;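 note: stock transfer was 7.5 nL into about 7.5 µL; 0% = neutral wells and 100% = wells with inactivated enzyme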
# Target sequence (P55789 whole entry, looked up): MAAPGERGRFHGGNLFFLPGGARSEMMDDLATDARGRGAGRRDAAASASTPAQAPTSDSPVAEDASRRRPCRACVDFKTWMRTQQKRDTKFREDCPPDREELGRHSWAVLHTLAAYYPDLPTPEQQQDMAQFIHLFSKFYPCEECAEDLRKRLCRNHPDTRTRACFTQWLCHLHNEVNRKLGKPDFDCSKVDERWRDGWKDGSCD
# LANA-H2B inh: blocks KSHV LANA binding to histone H2A/H2B; Q9QR71; cell-free LANA-H2A/H2B peptide, fluorescence polarization; inhibition, % (test concentration not listed); 0.6% of 320,000 active; AID 2629; in the data active = inhibition mostly above about 10%, no sharp cut-off; inactive = mostly below about 6.7%;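 note: stock transfer was 7.5 nL into about 10 µL; 0% = median of vehicle wells and 100% = median of positive control wells; one replicate is shown; the record names a cut of 25% in any replicate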
# B2AR ag: activates human beta-2 adrenergic receptor causing internalization; P07550; Am2.2-beta2AR cells, FAP receptor internalization, flow cytometry; reference of the scale not given here; response, % (concentration not given with the values); 0.43% of 340,000 active; AID 504454;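 active = response above a set limit, near 3 SD of response in nonfluorescent compounds, cut at about 42% in these data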;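 note: stock transfer was 100 nL into about 11 µL; a reference agonist was the positive control; negative values mostly stem from fluorescent compounds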
# Target sequence (P07550 whole entry, looked up): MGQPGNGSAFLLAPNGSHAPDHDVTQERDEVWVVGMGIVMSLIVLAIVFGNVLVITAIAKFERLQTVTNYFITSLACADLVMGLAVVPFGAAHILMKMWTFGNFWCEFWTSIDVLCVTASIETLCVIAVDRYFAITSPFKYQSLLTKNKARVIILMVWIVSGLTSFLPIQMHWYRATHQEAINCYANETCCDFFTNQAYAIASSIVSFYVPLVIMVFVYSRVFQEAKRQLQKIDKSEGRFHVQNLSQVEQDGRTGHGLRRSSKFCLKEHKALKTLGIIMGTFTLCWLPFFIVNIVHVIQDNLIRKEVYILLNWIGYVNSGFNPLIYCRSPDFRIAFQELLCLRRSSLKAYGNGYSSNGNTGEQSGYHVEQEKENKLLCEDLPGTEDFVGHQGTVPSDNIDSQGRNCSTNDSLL
# T cruzi inh: blocks replication of Trypanosoma cruzi; T. cruzi beta-gal in NIH3T3, luminescence, 90 h; inhibition, % (concentration not given with the values); 1.4% of 300,000 active;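 active = mean inhibition across valid replicates above about 55%, limit read from the data; inconclusive = mean below that limit but half or more replicates reach it; inactive = mean below it, under half of replicates reach it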;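 note: signal also drops with host cell toxicity which is not excluded here; 0% = plate median of DMSO wells and 100% = zero luminescence signal; higher percent means less beta-gal luminescence so fewer parasites; stock transfer was 50 nL into about 50 µL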
# Calb FLC: C. albicans growth modulation with fluconazole; C. albicans CaCi-2 (fluconazole-resistant clinical isolate) + fluconazole, Alamar Blue growth, 48 h; growth inhibition, % (test concentration not listed); 0.57% of 300,000 active; AID 1979;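 active = most replicates above 75%; inconclusive = exactly half above 75%; inactive = most below 75%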;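 note: all wells also contain fluconazole at 8 µg/ml as a sub-toxic cotreatment; 0% = median of DMSO wells and 100% = median of geldanamycin control wells; wells of about 8 µL received 7.5 nL stock; the first replicate is given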
# A1 inh: inhibitors of the anti-apoptotic protein A1, read as caspase activation; 0.066% of 330,000 active; MEF A1-2A-BIM cells, Caspase-Glo 3/7 luminescence, 3 h; percent of clofoctol response, vehicle zero; caspase activation, % (concentration not given with the values);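 active = over half of replicate activation scores above 10%, or exactly half above 10 with the replicate mean above 10; inconclusive = replicate mean below 10 yet half the replicates above 10; inactive = over half of replicates below 10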;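 note: wells of about 30 µL received 50 nL stock; many hits fall short of the cut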
# Beta cell apopt: beta cell apoptosis inhibition. INS-1E cytokine-induced death, ATP luminescence, 48 h; percent of positive-control rescue, neutral wells zero. protection from apoptosis, % (concentration not given with the values). 0.8% of 300,000 active. AID 435005;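 active = all replicates at 75% or more, or half of them and the mean; inconclusive = half reach 75% but not the mean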;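 note: 0% = cytokine-treated negative control wells and 100% = positive control rescue; higher means more ATP so stronger rescue from cytokine killing; wells of about 40 µL received 100 nL stock; the first replicate is given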
# rRNA inh HTS: inhibits bacterial ribosomal RNA function over humanized ribosomes; E. coli WT GFP vs humanized-ribosome RFP mutants, fluorescence, 24 h; hits give low values; DMSO median 0, no signal -100; 1.6% of 350,000 active; AID 720706; GFP signal change (wild-type ribosome), % (no concentration beside the values);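 active = significant combined selectivity score with lowered wild-type GFP, culture density cut under 30%, mutant RFP and density less affected; inactive = any of these conditions unmet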; note: one replicate is shown; some compounds called inactive have numbers as strong as hits
# rRNA inh HTS OD600: further read-out of rRNA inh HTS, marked with its call; OD600 change, %; measured here: OD600 growth;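 optical density of the mix in the first replicate; 0 = DMSO median and -100 = no signal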
# rRNA inh HTS RFP: second read-out of rRNA inh HTS, no call of its own (marks repeat the call); RFP signal change, %; measured here: RFP humanized mutant strains;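 first replicate; 0 = DMSO median and -100 = no signal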
# Active calls of the source: *; ? = inconclusive; . = no result given.
# Field names: A = ALR H2O2 inh; B = LANA-H2B inh; C = B2AR ag; D = T cruzi inh; E = Calb FLC; F = A1 inh; G = Beta cell apopt; H = rRNA inh HTS; I = rRNA inh HTS OD600; J = rRNA inh HTS RFP
Molecule: O=C(N/N=C/c1ccccn1)c1cccnc1
  A = -5; B = 4.0; C = 1; D = 4; E = 7; F = 1.0; G = 0; H = -2; I = 5; J = 0.3

Molecule: COc1cccc(/C(O)=C2/C(=O)C(=O)N(Cc3cccnc3)C2c2ccco2)c1 (configuration not stated)
  A = 4; B = 2.0; C = 2; D = -14; E = 3; F = -0.8; G = -13; H = .; I = .; J = .

Molecule: Cc1c(C(=O)OC2CCCCC2)sc2nc[nH]c(=O)c12
  A = -2; B = 3.6; C = -10; D = -4; E = -7; F = -0.1; G = -5; H = .; I = .; J = .

Molecule: O=C(CSc1n[nH]c(=O)n1Cc1ccco1)Nc1ccccc1Cl
  A = -5; B = -4.5; C = 11; D = -12; E = 0; F = -0.9; G = .; H = .; I = .; J = .

Molecule: CS(=O)(=O)c1ccc2nc(NC(=O)c3ccccc3Cl)sc2c1
  A = 11; B = -0.7; C = 2; D = -4; E = -6; F = -6.3; G = -4; H = 12; I = -12; J = 3.0

Molecule: Cc1ccc(N=Cc2c(O)cc(C)oc2=O)c(C)c1
  A = -4; B = -2.7; C = 5; D = -9; E = 22; F = -0.1; G = -2; H = 23; I = 17; J = 3.6

Molecule: O=C(Nc1ccc(O)c(C(=O)O)c1)Oc1ccccc1
  A = .; B = -8.1; C = -6; D = -12; E = -1; F = 0.5; G = -1; H = 6; I = 3; J = -0.3

Molecule: CC(C)NC(=O)CN1CCN(Cc2nc(C(c3ccccc3)c3ccccc3)no2)CC1
  A = -14; B = 3.9; C = -4; D = 7; E = 5; F = 1.1; G = 6; H = -2; I = -4; J = 3.4

Molecule: COc1cc(Cl)ccc1NC(=S)N(CCCN1CCOCC1)Cc1cn(C)c2ccccc12
  A = -1; B = -7.5; C = 3; D = 17; E = 25; F = 0.3; G = -12; H = .; I = .; J = .

Molecule: Cc1ccc(-c2nnc(Nc3ccc(OCC(N)=O)cc3)c3ccccc23)cc1S(N)(=O)=O
  A = -92; B = -6.2; C = -3; D = -6; E = .; F = -0.1; G = -9; H = -13; I = -13; J = -0.5

# Overlap with the part before: 4 compounds, then new ones.
# Field names: A = ALR H2O2 inh; B = LANA-H2B inh; C = B2AR ag; D = T cruzi inh; E = Calb FLC; F = A1 inh; G = Beta cell apopt; H = rRNA inh HTS; I = rRNA inh HTS OD600; J = rRNA inh HTS RFP
Molecule: O=C(Nc1ccc(O)c(C(=O)O)c1)Oc1ccccc1
  A = .; B = -8.1; C = -6; D = -12; E = -1; F = 0.5; G = -1; H = 6; I = 3; J = -0.3

Molecule: CC(C)NC(=O)CN1CCN(Cc2nc(C(c3ccccc3)c3ccccc3)no2)CC1
  A = -14; B = 3.9; C = -4; D = 7; E = 5; F = 1.1; G = 6; H = -2; I = -4; J = 3.4

Molecule: COc1cc(Cl)ccc1NC(=S)N(CCCN1CCOCC1)Cc1cn(C)c2ccccc12
  A = -1; B = -7.5; C = 3; D = 17; E = 25; F = 0.3; G = -12; H = .; I = .; J = .

Molecule: Cc1ccc(-c2nnc(Nc3ccc(OCC(N)=O)cc3)c3ccccc23)cc1S(N)(=O)=O
  A = -92; B = -6.2; C = -3; D = -6; E = .; F = -0.1; G = -9; H = -13; I = -13; J = -0.5

Molecule: CC(=O)N1CCc2cc(S(=O)(=O)NCCC(=O)NCCc3ccc(Cl)cc3)ccc21
  A = 1; B = 3.2; C = -2; D = -8; E = 2; F = 0.4; G = 18; H = -5; I = -6; J = 0.5

Molecule: O=C(CSc1nc(=O)n2ccccc2n1)N1CCCc2ccccc21
  A = .; B = -0.7; C = -1; D = -3; E = -2; F = 0.0; G = -6; H = 1; I = 3; J = -0.6

Molecule: Cc1ccc(CC(=O)NNC(=O)c2ccncc2)cc1C
  A = -7; B = -0.2; C = 0; D = -14; E = 6; F = -0.1; G = .; H = 12; I = 8; J = -1.6

Molecule: CC(C)CN1CCC(CNC(=O)CCc2nnc(Cc3c[nH]c4ccccc34)o2)CC1
  A = -4; B = -0.7; C = 5; D = 4; E = 4; F = 2.6; G = -7; H = 2; I = 7; J = 3.9

Molecule: Cc1ccc(-c2csc3ncnc(SCC(=O)c4ccc5c(c4)OCCO5)c23)cc1
  A = 0; B = -1.6; C = 9; D = 14; E = -6; F = 0.7; G = 6; H = .; I = .; J = .

Molecule: CSc1ccccc1C(=O)Nc1cccc(C)c1
  A = 1; B = -3.3; C = 2; D = -2; E = -4; F = -1.1; G = .; H = .; I = .; J = .

Molecule: COc1cc(Cl)c(S(=O)(=O)NCCN2CCOCC2)cc1Cl
  A = 2; B = 1.3; C = 12; D = -13; E = 2; F = -0.4; G = -5; H = .; I = .; J = .

Molecule: CC(=O)Nc1nonc1NC(=O)CSc1nc2ccccc2o1
  A = ?; B = 0.1; C = -2; D = -12; E = 17; F = -0.9; G = -2; H = .; I = .; J = .

Molecule: CCn1nc(C)c(CN2CCC(C(=O)Nc3cccc(-c4cccc(F)c4)c3)CC2)c1C
  A = -6; B = 4.4; C = 6; D = 36; E = -22; F = 0.6; G = -1; H = -5; I = -10; J = 2.0

Molecule: CC(C)(O)C#Cc1ccc(CN2CCN(C3CCCCC3)C(CCO)C2)cc1 (configuration not stated)
  A = .; B = -0.9; C = 5; D = 8; E = -8; F = -0.3; G = -2; H = 14; I = 19; J = 1.9

Molecule: CC1=NN(C(C#N)c2ccccc2)C(C)(C)C1 (configuration not stated)
  A = -12; B = -1.1; C = 8; D = -6; E = 6; F = -1.1; G = 3; H = 18; I = 14; J = 5.1

Molecule: COc1ccccc1CCNS(=O)(=O)c1c(C)n(C)c(=O)n(C)c1=O
  A = -38; B = 5.4; C = 2; D = -7; E = -20; F = 1.0; G = -3; H = 0; I = 5; J = 2.7

Molecule: CCN(CC(=O)NCc1cccs1)C(=O)c1cc(S(=O)(=O)N2CCCCC2)ccc1Cl
  A = 3; B = -2.4; C = -3; D = 10; E = 3; F = 0.8; G = .; H = 6; I = 1; J = -0.3

Molecule: Nc1n[nH]c(CO)n1
  A = -2; B = -1.0; C = -1; D = 0; E = 4; F = -0.9; G = -8; H = 7; I = 7; J = -2.7

Molecule: Cn1c(Cc2ccccc2)nnc1SCC(=O)Nc1cccc(S(=O)(=O)NC2=NCCCCC2)c1
  A = -7; B = -2.6; C = -1; D = -2; E = -15; F = 0.8; G = -3; H = -4; I = -2; J = 13

Molecule: CCCCN(CCCC)C1=Nc2ccccc2N/C1=C(/C#N)C(=O)OCC
  A = -11; B = -1.4; C = -6; D = 38; E = -1; F = 0.0; G = 5; H = .; I = .; J = .

Molecule: Cc1ccc(NS(=O)(=O)c2cccc(C(=O)N3CCCC(C)C3)c2)cc1 (configuration not stated)
  A = -5; B = 2.0; C = 5; D = 14; E = -23; F = -0.5; G = 1; H = 0; I = 6; J = -2.4

Molecule: COc1cc2c(cc1OC)CN(C(=S)NC(=O)c1ccccc1)CC2
  A = 4; B = -0.3; C = -2; D = -20; E = -4; F = -1.3; G = 4; H = -16; I = -12; J = 1.3

# Sorted by value in ALR H2O2 inh (ascending): some entries from above
Compound | ALR H2O2 inh | LANA-H2B inh | B2AR ag | rRNA inh HTS | rRNA inh HTS OD600 | rRNA inh HTS RFP
CCCCN(CCCC)C1=Nc2ccccc2N/C1=C(/C#N)C(=O)OCC | -11 | -1.4 | -6 | . | . | .
Cc1ccc(NS(=O)(=O)c2cccc(C(=O)N3CCCC(C)C3)c2)cc1 (configuration not stated) | -5 | 2.0 | 5 | 0 | 6 | -2.4
Nc1n[nH]c(CO)n1 | -2 | -1.0 | -1 | 7 | 7 | -2.7

# This is a subset, so the mix of outcomes need not match the whole.
